Compound activity: PubChem BioAssay, ICCB-Longwood Screening Facility, Harvard Medical School
LANA-nucl inh – LANA-nucleosome interaction inhibition; FITC-LANA1-23 / chicken nucleosome fluorescence polarization; hits give low values; z-score (test concentration not listed); 0.3% of 51,000 active; AID 720717;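 active means both repeat wells score below -2 in polarization z-score versus plate sample wells, excluding overly bright wells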;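 further: 100 nL library stock added to about 30 µL; numbers are from one replicate; some results filed as inactive read as strong as hits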
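Test system: purified chicken nucleosomes with FITC-labelled LANA N-terminal peptide (1-23); Input: 240 nM purified chicken nucleosomes (480 nM peptide binding sites), final; Medium: TEN-BT buffer, pH 7.5; Timing: 10–45 min, room temperature; Technique: fluorescence polarization, 480 nm excitation, 535 nm parallel and perpendicular emission; Replication: duplicates.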
BasE inh – BasE siderophore biosynthesis inhibition. inhibition, % (concentration not given with the values). purified BasE, fluorescence polarization binding displacement. 0.1% of 84,000 active;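 active means both replicates above 25% with normal brightness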;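 further: 0% = negative plate control signal and 100% = positive plate control signal; stock transfer was 100 nL into about 30 µL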
* = called active by the depositor; . = no result given; & = joins results of further samples. Not all compounds are listed; count on the stated rates, not on these rows.

compound | LANA-nucl inh | BasE inh
COC(=O)c1c(C)[nH]c(C(=O)COC(=O)C23CC4CC(CC(NC(C)=O)(C4)C2)C3)c1C | . | -2.7
CN1CCc2cccc3c2C1Cc1ccc(O)c(O)c1-3 (stereo not given) | 0.149&4.84 | -0.2
CC1(C)COC(c2cccc(C#N)c2)OC1 | 0.177 | 0.7
COCC(C)n1c(SCc2nnc(-c3ccccc3)o2)nc2ccccc2c1=O (stereo not given) | . | -5.5
O=c1c2ccccc2nnn1-c1ccc(Br)cc1 | -1.09 | 3.8
Nn1c(SCC(=O)NC2CCCC2)nnc1-c1ccc(Cl)cc1Cl | . | 2.7
Nc1ccc2cn[nH]c2c1 | 0.726 | .
CCn1c2ccccc2c2cc(CN3CCC(N4CCCCC4)CC3)ccc21 | . | -2.9
CCOc1ccc(CCN2CN(CC)CNC2=S)cc1OCC | -0.669 | 2.5
O=C(O)c1cccc(NCC2SC(=S)NC2=O)c1 (stereo not given) | . | 0.0

Next section:
compound | LANA-nucl inh | BasE inh
C1=CCC(CNCCCN2CCOCC2)CC1 (stereo not given) | -0.011 | 0.2
Cc1cccc(NC(=O)N2CCC(C)CC2)c1C | 0.481 | 4.1
CC(C#N)OC(=O)CSc1nnc(-c2ccccc2F)n1-c1ccccc1 (stereo not given) | . | 3.5
COC1CC(O[C@H]2[C@H](C)[C@@H](OC3OC(C)CC(N(C)C)C3O)[C@@H](C)C[C@]3(CO3)C(=O)[C@H](C)[C@@H](O)[C@@H](C)[C@@H](C)OC(=O)[C@@H]2C)OC(C)C1O (stereo not given in full) | 0.187 | -1.4
CCCCNC(=O)C1CCCN(S(C)(=O)=O)C1 (stereo not given) | -1.22 | -0.5
Cn1/c(=N/N=C2\CCc3ccccc32)sc2ccccc21 | . | 3.5
CCCC(=O)N1CCCC(c2nc(-c3ccc(OC)cc3)no2)C1 (stereo not given) | -0.243 | -0.6
CC(=O)OC(C)C1CCC2C3CC[C@H]4CC(=O)CCC4(C)C3CCC12C (stereo not given in full) | . | -0.3
CC1CCCCC1NC(=O)CSc1nnc(-c2cccs2)n1-c1ccccc1 (stereo not given) | . | -0.1
Cc1ccc(NNC(=S)NC(=O)C2CC2)c(C)c1 | . | -1.0

(cont.)
compound | LANA-nucl inh | BasE inh
Cc1nc(C)c(C(=O)Nc2nnc(C3CCCO3)s2)s1 (stereo not given) | 0.057 | 1.8
FC(F)(F)c1cc(-c2noc(C3CCc4ccccc4O3)n2)cc(C(F)(F)F)c1 (stereo not given) | . | 3.1
Cc1ccc(-n2c(C)c3c(C)nnc(C)c3c2C)cc1C | -0.557 | 0.2
COc1cc2c(C#N)c(N3CCN(S(=O)(=O)c4ccc5c(c4)OCCO5)CC3)nc(N)c2c(N)n1 | . | -2.3
COc1ccc(C(N)c2nccc3cc(OC)c(OC)cc23)cc1OC (stereo not given) | 0.434 | .
COc1ccc(C(=O)N2C3C=CC(C3)C2(C(F)(F)F)C(F)(F)F)cc1 (stereo not given) | 0.079 | 0.0
Cc1ccc(C(=O)NCC(C)(C)N2CCOCC2)s1 | . | 19.9
Nc1nnc(SCC(=O)N2CCCCC2)n1CC(=O)N1CCCCC1 | 0.0965 | 4.9
CS(=O)(=O)/C(C#N)=C/Nc1ncccn1 | -0.0525 | 2.8
NC(=S)COc1ccccc1 | . | 0.2

The listing continues.
compound | LANA-nucl inh | BasE inh
COc1cccc(NC(=O)N2CCC(O)(c3ccc4c(c3)OCO4)CC2)c1 | 2.45 | -4.2
O=C(O)/C=C/c1cccc(N=NN2CCCCC2)c1 | 0.487 | -1.9
Cc1ccc(C)c(N2N=C(C(=O)N3CCN(c4ccccc4F)CC3)CCC2=O)c1 | . | 0.3
CCOC(=O)c1sc(N(Cc2ccccc2)C(=O)COC(=O)c2cccn2C)nc1C | . | 1.0
OCn1nnn(-c2ccccc2)c1=S | 0.13 | 8.2
CCN(CC)c1ccc(/C=C2\N=C(SC)SC2=O)cc1 | -2.6* | 9.3
NC(=O)NCc1ccc(C(=O)O)cc1 | . | 1.4
COC(=O)/C(=C(/O)CSc1nnc(COc2ccccc2Cl)n1C)c1nc2ccccc2[nH]1 | . | 0.7
Cc1ccc(C(=O)NC(C)(C)C)cc1 | 0.226 | -1.6
O=C(CC(NCCC1=CCCCC1)C(=O)O)Nc1ccccc1Cl (stereo not given) | -0.556 | 1.7

A different layout for some results above:
Screens in order: LANA-nucl inh | BasE inh
O=C(CC(NCCC1=CCCCC1)C(=O)O)Nc1ccccc1Cl (stereo not given)
→ -0.556 | 1.7
Cc1ccc(C)c(N2N=C(C(=O)N3CCN(c4ccccc4F)CC3)CCC2=O)c1
→ . | 0.3
OCn1nnn(-c2ccccc2)c1=S
→ 0.13 | 8.2
CCOC(=O)c1sc(N(Cc2ccccc2)C(=O)COC(=O)c2cccn2C)nc1C
→ . | 1.0

The list continues.
compound | LANA-nucl inh | BasE inh
CCOC(=O)c1cnc(-c2ccccc2)nc1Nc1ccc(C)cc1 | 0.77 | -0.1
COc1ccc(-n2nnc3c(SCC(=O)NCC4CCCO4)ncnc32)cc1 (stereo not given) | 0.978 | -0.1
CCc1ccc(NC(=O)COC(=O)CN2C(=O)COc3ccccc32)cc1 | . | 1.0
CCc1sc(-c2nnc(CN3CCN(S(=O)(=O)c4ccc5c(c4)CCC5)CC3)o2)cc1C | . | 0.5
CC(C)OP(C)(=O)CN1CCN(CP(C)(=O)OC(C)C)CC1 (stereo not given) | -0.58 | 0.8
Cc1c(C(=O)NCc2cccnc2)oc2ccc3c(c12)C(O)CC1(CCCCC1)O3 (stereo not given) | -0.613 | -0.6
Cc1cc(SCc2ccccn2)nc(=O)[nH]1 | 0.471 | -1.4
C=CCNC(=O)c1cc(-c2ccccn2)nc2ccccc12 | 0.113 | -0.1
O=C1CN(C(=O)CSCc2cc(=O)n3c4c(sc3n2)CCCC4)c2ccccc2N1 | . | -0.5
COCCN1C(=O)N(c2cccc(C)c2)C(=O)C1CC(=O)Nc1cccc(F)c1 (stereo not given) | -0.241 | -0.8

Further structures
compound | LANA-nucl inh | BasE inh
CCNc1nc(SCc2ccc(Cl)cc2)nc2sc3c(c12)CCN(C)C3 | . | -1.0
Cc1ncc2c(N)ncnc2n1 | -0.916 | 3.5
CC(/C=C/c1ccccc1)=N\Nc1nc2c(c(=O)[nH]c(=O)n2C)n1CC(O)COC(C)C (stereo not given) | 0.177 | -1.0
COc1ccccc1C(=O)COC(=O)COc1ccc(C#N)cc1 | . | 0.5
C=C(C)c1cccc(C(C)(C)NC(=O)Nc2ccc3[nH]c(=O)[nH]c3c2)c1 | . | 0.6
C=CCNc1nnc(SCC(=O)NC(=O)c2ccccc2OC)s1 | . | -1.2
CN1/C(=C\C(=O)CSc2ncn[nH]2)C(C)(C)c2ccccc21 | . | -1.9
Cc1nc(=O)c(-c2ccccc2)c(C)n1-c1ccccc1O | 0.572 | 2.3
O=C(c1cc2ccccc2o1)N(CC1CCCO1)c1nc2ccccc2s1 (stereo not given) | . | 0.0
O=c1oc2ccccc2n1Cc1cc2c(cc1Br)OCO2 | -0.332 | -0.5

(more compounds)
compound | LANA-nucl inh | BasE inh
CC(C)C1Cc2c(sc3nc(SCC(=O)Nc4ccccc4)nc(N)c23)CO1 (stereo not given) | . | 2.2
Cc1cc(C)cc(N(CC(=O)O)S(=O)(=O)c2c(C)[nH]c(=O)[nH]c2=O)c1 | -1.69 | 2.6
CC(=O)NC1(c2ccccc2)CCN(C(=O)c2cccs2)CC1 | 0.169 | 1.1
CS(=O)(=O)N(CC(=O)N1CCCCC1)C1CCCCC1 | 0.197 | -2.0
CC1=C/C(=C/c2ccco2)C(=O)O1 | . | 3.6
COc1ccc(C(=O)Nn2c(C)nnc2-n2nc(C)cc2C)cc1OC | . | 1.3
O=C(Nc1nccs1)C1C2/C=C\CCCCC21 (stereo not given) | -1.65 | 0.4
COC(=O)c1sccc1OCc1ccc(Cl)cc1 | 0.073 | -1.4
CC1CN(CC(O)COC2CCCc3ccccc32)CC(C)O1 (stereo not given) | . | -2.4
CCOc1ccc(NC(=O)CSc2nc3[nH]ncc3c(=O)n2-c2ccc(OC)cc2)cc1 | 0.524 | 1.9

New compounds follow
compound | LANA-nucl inh | BasE inh
Cc1cc(Sc2ccc(Cl)cc2)nc(-c2ccccn2)n1 | . | -1.4
Nc1n[nH]c(CCCc2nc(N)n[nH]2)n1 | -0.326 | 0.6
C/C(N)=C(/C#N)C(=O)CSc1nc(C)nc2ccccc12 | . | -2.6
CCOC(=O)CSc1nc(C)c2cc(C)c(C)cc2n1 | . | -0.3
CC1CCN(C(=O)c2ccc(NS(=O)(=O)c3ccccc3)cc2)CC1 | 0.66 | -0.1
C=CCn1c(SCC(=O)c2ccccc2)nnc1-c1cc2ccccc2o1 | -0.592 | 2.9
COC(=O)C(Cc1ccccc1)NC(=O)c1c(-c2ccccc2)noc1C (stereo not given) | . | 0.4
N#CCc1nn2c(-c3ccccc3)ccnc2c1C#N | 0.453 | .
COc1cc(NS(C)(=O)=O)ccc1Cc1c2ccccc2nc2ccccc12 | 1.25 | .
CC1=CC(C)C(C2OCC(C)(C)CO2)C(C)C1 (stereo not given) | -0.0705 | 2.0

The results go on.
compound | LANA-nucl inh | BasE inh
O=C(c1ccc2c(c1)S(=O)(=O)N=C1CCCCCN12)N1CCCc2ccccc21 | . | 0.3
CCC(=O)c1ccc(OCC(O)CNC2CCCCCC2)cc1 (stereo not given) | 0.159 | -1.5
CCOC(=O)C1=C(C)Nc2ncnn2C1 | -0.895 | 0.7
CCOc1ccc(NC(=O)NC(C)CC)cc1 (stereo not given) | -0.56 | 0.7
CN1CCN(c2c(F)cc3c(=O)c(C(=O)O)cn(CCF)c3c2F)CC1 | 0.812 | .
O=C(NN=C1C2CC3CC(C2)CC1C3)c1cccc(O)c1 | 0.0515 | 4.4
O=C1Oc2ccccc2C2c3sc(=O)[nH]c3SC(c3ccccc3)C12 (stereo not given) | -0.435 | 0.1
CNC(=S)Nc1ccc(C)c(NC(=S)NC)c1 | . | -0.9
CCN(CC)S(=O)(=O)c1ccc(C(=O)Oc2coc(CSc3ncccn3)cc2=O)cc1 | 0.746 | -1.0
CCOC(=O)c1c(O)c2cccc3c2n(c1=O)CCC3 | 0.695 | 2.7

One compound at a time, from the list above. Order of screens: LANA-nucl inh, BasE inh
`Cc1ncc2c(N)ncnc2n1` reads -0.916, 3.5
`CC(C)OP(C)(=O)CN1CCN(CP(C)(=O)OC(C)C)CC1` (stereo not given) reads -0.58, 0.8

(next part)
compound | LANA-nucl inh | BasE inh
NC(=O)C1CCN(C(=O)CSc2nc(O)cc(=O)[nH]2)CC1 | 0.296 | -1.9
O=C(O)c1cc(C23CC4CC(CC(C4)C2)C3)nc2ccc(Br)cc12 | . | 2.0
OC(COC(C(F)(F)F)C(F)(F)F)CN1CCN(c2cccc(C(F)(F)F)c2)CC1 (stereo not given) | . | -1.2
O=C(Nc1nc2ccccc2[nH]1)C1CC1 | . | 3.0
N/C(COc1ccc(-c2nnco2)cc1)=N\OC(=O)c1cccc(C(F)(F)F)c1 | -0.861 | 1.1
CC(C)(C)C1CCC(NN2CCOCC2)CC1 (stereo not given) | -0.829 | 0.4
Cc1ccc(C(C)C)c(OCC(=O)/C=C2\Sc3ccccc3N2C)c1 | . | 2.2
O=C(OCC(=O)C12CC3CC(CC(C3)C1)C2)c1ccc(-n2cnnn2)cc1 | . | -0.7
O=C(Nc1ccccc1)Nc1cc(N2CCOCC2)ncn1 | . | 2.7
CCN(CC)C(=O)c1ccc(Oc2nnnn2-c2ccccc2)c(OC)c1 | -1.02 | 0.2

Compounds from the list above with a tert-butyl group (2):
compound | LANA-nucl inh | BasE inh
Cc1ccc(C(=O)NC(C)(C)C)cc1 | 0.226 | -1.6
CC(C)(C)C1CCC(NN2CCOCC2)CC1 (stereo not given) | -0.829 | 0.4

Remaining list, next part:
compound | LANA-nucl inh | BasE inh
CN(C)C(=O)CNCC1CCCO1 (stereo not given) | -1.25 | 1.3
Cc1nc2ccccc2c(=O)n1/N=C/c1cccs1 | . | 0.8
O=C(NCCOc1ccccc1)c1n[nH]c(=O)c2ccccc12 | -1.2 | 0.3
CCc1ccccc1NC(=O)CN1CCN(Cc2ccccc2C)S1(=O)=O | . | -0.3
COc1ccc(CNC(=O)c2nc3ncccn3n2)cc1 | 0.247 | -2.4
CC(C)(C)c1ccc(S(=O)(=O)N=S2CCN(c3ncc(C(F)(F)F)cc3Cl)CC2)cc1 | -0.564 | 2.9
O=C(O)CCc1ccc(-c2cccs2)n1-c1cccc(Br)c1 | 0.129 | -2.1
O=C(CSc1nnc2ccccn12)c1ccccc1 | 1.5 | 1.5
C=CCNC(=O)c1c(-c2ccccc2Cl)noc1C | 0.416 | .
CS(=O)(=O)N1CCCC(C(=O)NC2CCCC2)C1 (stereo not given) | -0.064 | -0.6

Continued.
compound | LANA-nucl inh | BasE inh
Cc1cc(-c2ccccc2)nc2oc3c(c12)NC(=O)CN(c1ccccc1)C3=O | . | 1.0
CCOc1ccc(/C=N/N2C(C)CCCC2C)cc1 (stereo not given) | . | 1.9
O=C(CNc1ccccc1)NN=C1CCCC1 | . | -0.1
c1csc(CN2CCN(c3nc(CN4CCOCC4)nc4sc5c(c34)CCC5)CC2)c1 | . | -2.4
C/C=C(\C)CN1CCN(CCOCCO)CC1 | 0.948 | 0.6
NCCN1CCc2ccccc21 | 0.0535 | -2.0
